Source: PubChem BioAssay
rRNA inh HTS: reduced GFP signal of wild-type E. coli, primary screen, bacterial rRNA inhibitor project, GFP/RFP fluorescence, OD600, single point; E. coli WT GFP vs humanized-ribosome RFP mutants, 24 h; hits give low values; DMSO median 0, no signal -100; actives 1.6% (n = 350,000); GFP signal change (wild-type ribosome), % (test concentration not listed);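 active = significant combined selectivity score with lowered wild-type GFP, culture density cut under 30%, mutant RFP and density less affected; inactive = any of these conditions unmet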; also: one replicate is shown; some compounds called inactive have numbers as strong as hits
Calb FLC: C. albicans growth inhibition with fluconazole, primary screen, CaCi-2 strain, Alamar Blue fluorescence; C. albicans CaCi-2 (fluconazole-resistant clinical isolate) + fluconazole, 48 h; growth inhibition, % (no concentration beside the values); actives 0.57% (n = 300,000); AID 1979, 2009;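 active = most replicates above 75%; inconclusive = exactly half above 75%; inactive = most below 75%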;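 also: all wells also contain fluconazole at 8 µg/ml as a sub-toxic cotreatment; 0% = median of DMSO wells and 100% = median of geldanamycin control wells; wells of about 8 µL received 7.5 nL stock; the first replicate is given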
Vif TR-FRET: inhibitors of Vif binding to APOBEC3G peptide, primary screen, biochemical, TR-FRET, GST-Vif 1-94, biotin-A3G peptide, dose response retest (AID 1117319); Virion infectivity factor (Human immunodeficiency virus type 1 group M subtype B (isolate …; TR-FRET GST-Vif / biotin-A3G peptide binding; higher % means a stronger effect; test concentration not given here; strong numbers were not always called active; inhibition, %; hits with a dose series show IC50 in µM; actives 0.57% (n = 260,000);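 active = above the screen mean plus three standard deviations and confirmed in dose response; inconclusive = results disagree or hit not tested in dose response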;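 also: Vif residues 1-94 fused to GST binding biotinylated APOBEC3G peptide 110-148; 0% = full assay without inhibitor and 100% = GST in place of GST-Vif; retest series ran down from 100 µM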
MLL AF4-AF9 inh: inhibitors of AF4 peptide binding to AF9, primary screen, biochemical, AlphaScreen, biotin-AF4 peptide, FLAG-AF9, single point | Protein AF-9 (Homo sapiens), P42568 | inhibition, % at 10 µM | actives 0.47% (n = 350,000) | AID 651704, 2012;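 active = every replicate reaching a set inhibition limit, whatever the replicate mean, cut at about 25% in these data; inconclusive = mean inhibition reaches that limit but some replicates miss it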;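 also: 0% = plate neutral control median and 100% = total signal loss; the record names both 10 and 1 µM as test concentration; the first replicate is given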
Target sequence (P42568 whole entry, looked up): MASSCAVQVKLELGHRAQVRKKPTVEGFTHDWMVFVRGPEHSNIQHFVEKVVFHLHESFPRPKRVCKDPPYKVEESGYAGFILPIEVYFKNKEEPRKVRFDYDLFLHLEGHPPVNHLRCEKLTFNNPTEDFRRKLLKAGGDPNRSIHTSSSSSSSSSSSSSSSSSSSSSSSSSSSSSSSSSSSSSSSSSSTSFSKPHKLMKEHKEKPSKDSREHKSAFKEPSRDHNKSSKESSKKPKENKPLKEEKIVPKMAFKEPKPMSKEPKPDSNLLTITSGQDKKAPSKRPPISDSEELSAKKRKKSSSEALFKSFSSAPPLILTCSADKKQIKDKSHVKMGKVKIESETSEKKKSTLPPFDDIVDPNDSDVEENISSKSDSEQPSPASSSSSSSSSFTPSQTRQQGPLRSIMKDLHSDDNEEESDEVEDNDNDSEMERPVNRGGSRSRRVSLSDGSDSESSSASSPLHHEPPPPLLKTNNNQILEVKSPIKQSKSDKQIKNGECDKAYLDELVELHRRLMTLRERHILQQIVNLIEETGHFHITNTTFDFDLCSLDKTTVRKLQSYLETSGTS
Beta apoptosis: inhibitors of cytokine-induced beta cell apoptosis, primary screen, luminescence; protection from apoptosis, % (concentration not given with the values); INS-1E cytokine-induced death, ATP luminescence, 48 h; percent of positive-control rescue, neutral wells zero; AID 435005, 2010; actives 0.8% (n = 300,000);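 active = all replicates at 75% or more, or half of them and the mean; inconclusive = half reach 75% but not the mean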;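 also: 0% = cytokine-treated negative control wells and 100% = positive control rescue; higher means more ATP so stronger rescue from cytokine killing; wells of about 40 µL received 100 nL stock; the first replicate is given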
T cruzi inh: inhibitors of intracellular T. cruzi growth, primary screen, luminescence, NIH3T3 host cells | T. cruzi beta-gal in NIH3T3, 90 h | inhibition, % (test concentration not listed) | actives 1.4% (n = 300,000) | AID 1885, 2009;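 active = mean inhibition across valid replicates above about 55%, limit read from the data; inconclusive = mean below that limit but half or more replicates reach it; inactive = mean below it, under half of replicates reach it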;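 also: signal also drops with host cell toxicity which is not excluded here; 0% = plate median of DMSO wells and 100% = zero luminescence signal; higher percent means less beta-gal luminescence so fewer parasites; stock transfer was 50 nL into about 50 µL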
RanGTP-Impb inh: inhibitors of RanGTP-importin-beta interaction, primary screen, biochemical, FRET, CFP-Ran, YFP-importin-beta, homogeneous | Ran GTPase (GTP-bound) - importin-beta complex | actives 1.1% (n = 300,000) | inhibition, % (no concentration beside the values) | cell-free CFP-Ran/YFP-importin-beta FRET ratio;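 active = most replicates above 15%; inconclusive = exactly half above 15%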;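 also: 0% = DMSO wells and 100% = Ran loaded with GDP instead of GTP; wells of about 40 µL received 100 nL stock; the first replicate is given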
A1 inh: caspase 3/7 activation in MEF A1-2A-BIM cells, primary screen, A1 inhibitor project, cell-based, luminescence, HTS. Caspase-Glo 3/7 luminescence, 3 h; percent of clofoctol response, vehicle zero. caspase activation, % (no concentration beside the values). actives 0.066% (n = 330,000). AID 2462, 2010;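 active = over half of replicate activation scores above 10%, or exactly half above 10 with the replicate mean above 10; inconclusive = replicate mean below 10 yet half the replicates above 10; inactive = over half of replicates below 10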;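 also: wells of about 30 µL received 50 nL stock; many hits fall short of the cut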
rRNA inh HTS OD600: second read-out of rRNA inh HTS, no call of its own (marks repeat the call); OD600 change, %; measured here: OD600 growth;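 optical density of the mix in the first replicate; 0 = DMSO median and -100 = no signal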
rRNA inh HTS RFP: further read-out of rRNA inh HTS, marked with its call; RFP signal change, %; measured here: RFP humanized mutant strains;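 first replicate; 0 = DMSO median and -100 = no signal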
An asterisk follows results filed as active; ? = inconclusive; . = no result given; & = joins results of further samples. Not all compounds are listed; rates above refer to the full screens.

entry | Molecule | rRNA inh HTS | rRNA inh HTS OD600 | rRNA inh HTS RFP | Calb FLC | Vif TR-FRET
1 | O=C(O)CNS(=O)(=O)Cc1ccccc1 | 8 | 4 | -3.6 | -9 | -15%
2 | O=C(O)CC(c1ccc(Cl)cc1)N1Cc2ccccc2C1=O (stereo unspecified) | 5 | 7 | -1.5 | -4 | 8%
3 | CC(Oc1cccc2cccnc12)C(=O)N/N=C/c1ccccc1 (stereo unspecified) | 17 | 9 | 1.4 | 11 | -6%
4 | O=C(CCNC(=O)c1ccc([N+](=O)[O-])cc1)Nc1cccc(S(=O)(=O)N2CCCCC2)c1 | -9 | 12 | -2.9 | -4 | 5%
5 | COc1ccc(Oc2nc(C)nc3c2oc2ccccc23)cc1 | . | . | . | -3 | -1%
6 | CC(C)CC(c1nnnn1C1CCCC1)N1CCN(C(=O)c2ccco2)CC1 (stereo unspecified) | . | . | . | 0 | ?
7 | O=C(N/N=C/c1cccnc1)c1ccc2c(c1)OCCO2 | 16 | 7 | 1.4 | -6 | .
8 | O=C(O)CCC(=O)Nc1ccc(OCC2CCCO2)cc1 (stereo unspecified) | 25 | 18 | 4.0 | -8 | .
9 | CN1C(=O)CSc2ccc(NC(=O)N3CCC(N4CCCCC4)CC3)cc21 | 12 | 10 | -2.6 | 9 | -2%
10 | Cc1ccc(OCc2cc(C(=O)NC3CCc4ccccc43)no2)cn1 (stereo unspecified) | 4 | -23 | -2.0 | ? | -4%
11 | CS(=O)(=O)Nc1cccc(C2=NN(C(=O)c3cccc([N+](=O)[O-])c3)C(c3cccs3)C2)c1 (stereo unspecified) | -7 | -1 | -0.1 | -1 | -8%
12 | CCC1=NN(C(=O)Cc2ccccc2)C(O)(c2ccncc2)C1 (stereo unspecified) | 11 | 10 | -0.1 | ? | 17%
13 | Cc1cc(NC(=S)NC(=O)/C=C/c2ccc(S(=O)(=O)N3CCOCC3)cc2)ccc1Br | -3 | -6 | 3.0 | 2 | -1%
14 | Cc1csc(NC(=O)c2ccccc2[N+](=O)[O-])n1 | . | . | . | 1 | 7%
15 | Cn1cccc1C(=O)OCC(=O)N1c2ccccc2NC(=O)C1(C)C | 11 | -5 | -0.9 | 5 | .

entry | MLL AF4-AF9 inh | Beta apoptosis | T cruzi inh | RanGTP-Impb inh | A1 inh
1 | -31 | 0 | -9 | 4.5 | -0.8
2 | -3.2 | -6 | 6 | -1.1 | 0.7
3 | 0.0 | -6 | -5 | 2.0 | 0.4
4 | 6.6 | 3 | -1 | 4.6 | -0.6
5 | . | 3 | 4 | 4.4 | -1.2
6 | . | . | -3 | -3.5 | 0.6
7 | -0.7 | -5 | -20 | -1.4 | -1.3
8 | -0.2 | 1 | -2 | 2.0 | -0.4
9 | 16 | -9 | -4 | 2.8 | 0.0
10 | 0.8 | 16 | -23 | -0.9 | -0.3
11 | 1.9 | -4 | 6 | 4.9 | 0.3
12 | -2.3 | -1 | -16 | 0.3 | 0.4
13 | -0.4 | -7 | -9 | -0.1 | 0.4
14 | . | 1 | -12 | 2.6 | 0.2
15 | 0.2 | -5 | -4 | -0.5 | 1.5

Next section.
entry | Molecule | rRNA inh HTS | rRNA inh HTS OD600 | rRNA inh HTS RFP | Calb FLC | Vif TR-FRET
16 | CCOC(=O)CNC(=O)c1cccnc1 | . | . | . | -2 | 5%
17 | COc1ccc(N=Nc2cc(C)c(O)c(CN3CCCCC3)c2)cc1 | -27* | -0.8* | -6.3* | -10 | -5%
18 | C/C(=N\O)C(=O)OC1CC(C)CCC1C(C)C (stereo unspecified) | . | . | . | -9 | 1%
19 | Cc1cc(OCC(=O)NN2C(=O)c3ccccc3C2=O)ccc1Cl | 15 | 10 | 1.5 | -9 | .
20 | O=C(CSCC(=O)N1CCCCC1)Nc1nc(-c2ccc(Cl)s2)cs1 | 0 | -40 | 7.9 | -1 | 11%
21 | Nc1nc(SCC(=O)NC2CCCC2)[nH]c(=O)c1NC(=O)c1cccs1 | 9 | 1 | -1.0 | 7 | 2%
22 | COc1ccc(CN=CC2=C(O)CNC2=O)cc1 | . | . | . | -9 | 15%
23 | Cc1nc(-c2cccc(NS(=O)(=O)c3ccc4ccccc4c3)c2)cs1 | . | . | . | 13 | -3%
24 | O=C(Nc1ccc(Cl)c(C(F)(F)F)c1)[C@@H]1CC=C[C@@H]2CCN(Cc3ccc(Cl)c(Cl)c3)C(=O)[C@@H]21 | 10 | 2 | -2.7 | 3 | .
25 | CCOC(=O)c1sc2ncn(CC(=O)NCC3CCCO3)c(=O)c2c1C (stereo unspecified) | . | . | . | 2 | -3%
26 | O=C(CNC(=O)c1cccc(Br)c1)N/N=C/c1cn[nH]c1-c1ccccc1 | 5 | 4 | 3.1 | 10 | .
27 | O=c1ccnc(S/C=C/c2ccccc2)[nH]1 | . | . | . | 2 | 3%
28 | O=C1C2CC=CCC2C(=O)N1c1ccc(Cc2ccncc2)cc1 (stereo unspecified) | . | . | . | -10 | 1%
29 | COc1ccc(/C(O)=C2/C(=O)C(=O)N(c3nc(C)c(C)s3)C2c2ccco2)cc1 (stereo unspecified) | . | . | . | 32 | 28%
30 | CC(C)C(=O)Nc1cccc(-c2csc(-c3ccccc3)n2)c1 | . | . | . | 1 | .

entry | MLL AF4-AF9 inh | Beta apoptosis | T cruzi inh | RanGTP-Impb inh | A1 inh
16 | . | 2 | -14 | 5.3 | 1.3
17 | 54* | 9 | -2 | 4.2 | 0.2
18 | . | -1 | -1 | -1.2 | -0.3
19 | -8.4 | -4 | -6 | -2.3 | 0.3
20 | 7.8 | -15 | -1 | -5.7 | ?
21 | 3.0 | 2 | 4 | 2.5 | 0.1
22 | . | 6 | -15 | -4.0 | -0.5
23 | . | -2 | -17 | -0.6 | -0.1
24 | -0.9 | 8 | 50 | -5.0 | 2.5
25 | . | -3 | -1 | 2.0 | 0.1
26 | -15 | 0 | -6 | . | 0.0
27 | . | 2 | -25 | -0.3 | 0.6
28 | . | 1 | -18 | -6.3 | -0.2
29 | . | 2 | -4 | -3.1 | -0.6
30 | -2.8 | 8 | 9 | 4.4 | 0.1

(more compounds)
entry | Molecule | rRNA inh HTS | rRNA inh HTS OD600 | rRNA inh HTS RFP | Calb FLC | Vif TR-FRET
31 | O=C(NCc1ccccc1)c1onc(CS(=O)(=O)c2ccc(Cl)cc2)c1C(=O)NCc1ccccc1 | 9 | 18 | 2.2 | -2 | .
32 | CC1CCN(C(=O)CCNS(=O)(=O)c2ccc(Cl)cc2)CC1 | 1 | 6 | 3.1 | -1 | .
33 | O=C(Nc1cc(S(=O)(=O)N2CCOCC2)ccc1N1CCCC1)c1ccc(F)cc1 | 13 | -3 | 0.6 | . | -14%
34 | COc1ccc(OC)c(NC(=O)N2CCCC(C)C2)c1 (stereo unspecified) | 2 | 4 | -3.2 | -9 | 32%
35 | O=C(COc1ccc(S(=O)(=O)NC2CCCCC2)cc1Cl)NCC1CCCO1 (stereo unspecified) | . | . | . | 4 | 0%&3%
36 | CCOC(=O)c1cc([N+](=O)[O-])c([N+](=O)[O-])cc1NC(C)=O | -7 | 0 | -0.8 | 106* | ?
37 | Cc1ccc(-c2csc(NC(=O)c3ccccc3F)c2C(=O)O)cc1 | -7 | -14 | 1.6 | 1 | .
38 | Cc1cc(/C=N/n2cnnc2)c(C)n1-c1ccc(Cl)cc1Cl | . | . | . | ? | 6%
39 | CCN(CC)S(=O)(=O)c1cccc(C(=O)OCC(=O)c2ccc3c(c2)OCCO3)c1 | . | . | . | 1 | ?
40 | CCOc1ccc(N(CC(=O)NCCc2ccccc2)C(=O)CCC(=O)Nc2nccs2)cc1 | 7 | 9 | 3.0 | 1 | .
41 | CCn1c(Nc2ccccc2Cl)nc2ccccc21 | 7 | 6 | -2.0 | -2 | 3%
42 | CC(C)(C)C(=O)NC(NC(=O)C(C)(C)C)c1ccc([N+](=O)[O-])cc1 | . | . | . | -12 | 1%
43 | O=C(N/N=C/c1ccc(-c2cccc([N+](=O)[O-])c2)o1)c1ccc([N+](=O)[O-])cc1 | 11 | 13 | 3.4 | -2 | .
44 | CC(C)(O)C#Cc1ccc(CN2CCN(Cc3ccccc3)C(CCO)C2)s1 (stereo unspecified) | 2 | 6 | 0.7 | 6 | -7%
45 | O=C(COC(=O)c1ccc(Br)o1)NCC1CCCO1 (stereo unspecified) | . | . | . | 17 | 16%
46 | O=C(O)c1cc(-c2ccccc2Cl)n(-c2ccccc2)n1 | -5 | -1 | 2.2 | -3 | -15%
47 | Cc1ccc(NC(=O)Nc2c(C)n(C)n(-c3ccccc3)c2=O)cc1 | 10 | 11 | -1.3 | -7 | -10%

entry | MLL AF4-AF9 inh | Beta apoptosis | T cruzi inh | RanGTP-Impb inh | A1 inh
31 | -1.8 | -1 | -14 | -0.5 | -0.1
32 | -8.7 | -2 | 14 | 0.0 | -0.5
33 | 0.2 | -7 | . | . | -0.2
34 | 3.8 | -2 | 1 | -2.0 | 0.5
35 | . | 2 | 8 | -1.7 | 0.0
36 | -13 | 2 | 1 | -0.9 | 0.0
37 | -6.6 | 6 | -26 | 1.8 | -5.4
38 | . | . | 34 | -1.4 | 0.9
39 | . | -3 | 1 | 4.5 | 1.5
40 | 2.0 | -3 | 26 | 0.2 | 0.4
41 | 0.4 | . | 22 | 0.7 | 0.2
42 | . | -5 | -5 | -0.4 | -0.7
43 | 4.4 | 6 | 40 | 2.4 | -0.3
44 | -0.3 | -4 | -5 | -0.3 | 0.6
45 | . | -2 | -1 | -3.9 | 1.1
46 | 0.1 | 2 | -1 | -2.4 | 1.3
47 | -2.7 | -5 | 1 | 0.0 | 0.0

A different layout for 2 compounds above.
22. COc1ccc(CN=CC2=C(O)CNC2=O)cc1
  rRNA inh HTS = .; rRNA inh HTS OD600 = .; rRNA inh HTS RFP = .; Calb FLC = -9; Vif TR-FRET = 15%; MLL AF4-AF9 inh = .; Beta apoptosis = 6; T cruzi inh = -15; RanGTP-Impb inh = -4.0; A1 inh = -0.5
2. O=C(O)CC(c1ccc(Cl)cc1)N1Cc2ccccc2C1=O (stereo unspecified)
  rRNA inh HTS = 5; rRNA inh HTS OD600 = 7; rRNA inh HTS RFP = -1.5; Calb FLC = -4; Vif TR-FRET = 8%; MLL AF4-AF9 inh = -3.2; Beta apoptosis = -6; T cruzi inh = 6; RanGTP-Impb inh = -1.1; A1 inh = 0.7
